PABP polyA inh: PABP poly(A) RNA binding inhibitors, primary screen, biochemical, fluorescence polarization, uHTS; 290,000 compounds, 1% hits; inhibition, % at 35 µM; Polyadenylate-binding protein 1 (Homo sapiens), P11940;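 active means 50% or more with normal probe brightness, or confirmed in later tests; about a fifth of its hits are not listed in these tables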;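 further: calls also rest on retests at 20 µM and on dose response follow-up; controls were probe without protein and protein plus probe with vehicle; some compounds called inactive have numbers as strong as hits; many hits fall short of the cut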
Target sequence (P11940 whole entry, looked up): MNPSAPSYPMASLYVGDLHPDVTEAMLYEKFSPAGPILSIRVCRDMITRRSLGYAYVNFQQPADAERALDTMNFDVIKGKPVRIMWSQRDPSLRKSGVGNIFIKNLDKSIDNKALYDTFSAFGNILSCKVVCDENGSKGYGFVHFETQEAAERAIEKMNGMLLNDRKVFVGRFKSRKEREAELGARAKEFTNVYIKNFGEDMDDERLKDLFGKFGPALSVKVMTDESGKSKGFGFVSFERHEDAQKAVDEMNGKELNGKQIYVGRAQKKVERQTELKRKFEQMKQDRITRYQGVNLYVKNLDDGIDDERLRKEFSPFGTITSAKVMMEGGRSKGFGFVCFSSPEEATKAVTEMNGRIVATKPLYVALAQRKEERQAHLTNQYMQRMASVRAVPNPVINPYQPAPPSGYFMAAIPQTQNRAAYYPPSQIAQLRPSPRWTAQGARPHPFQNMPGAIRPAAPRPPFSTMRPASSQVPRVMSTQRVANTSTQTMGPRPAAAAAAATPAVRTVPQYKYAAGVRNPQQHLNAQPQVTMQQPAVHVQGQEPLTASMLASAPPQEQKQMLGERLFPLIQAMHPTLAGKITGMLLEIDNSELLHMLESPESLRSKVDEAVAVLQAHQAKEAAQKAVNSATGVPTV
eIF4H inh: human eIF4H binding inhibitors, primary screen, translation initiation inhibitor project, biochemical, uHTS, fluorescence polarization; Eukaryotic translation initiation factor 4H (Homo sapiens), Q15056; eIF4H fluorescence polarization binding assay; inhibition, % at 35 µM; AID 2012, 2009; 290,000 compounds, 0.94% hits;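 active means 50% or more with normal probe brightness, or confirmed in later tests; about a fifth of its hits are not listed in these tables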;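 further: calls also rest on retests at 20 µM and on dose response follow-up; 0% = protein and probe with vehicle and 100% = probe without protein; strong numbers were not always called active; many hits fall short of the cut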
UUG fidelity: modulators of yeast start codon fidelity, primary screen, whole organism, S. cerevisiae, single point, plate reader; S. cerevisiae UUG-firefly luciferase reporter, luminescence/redox ratio; activity score, % at 18.7 µM; 350,000 compounds, 0.13% hits; AID 602363, 2012;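 active means replicate mean at a twofold rise or more, about +100% in these data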;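 further: firefly luciferase made from a UUG start codon reports start codon fidelity; reporter light over untreated wells divided by growth signal over untreated wells; some hits fall short of that in this replicate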
Env fusion inh: inhibitors of HIV-1 Env-driven cell-cell fusion, primary screen, HeLa-JRFL effector, CEM21 target cells, luciferase | 360,000 compounds, 1.1% hits | inhibition, % at 12.3 µM | AID 651610, 2012;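 active means mean replicate inhibition score of at least 50 and every replicate individually at or above 50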;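 further: 0% = plate neutral controls and 100% = maraviroc near 300 nM; one replicate is shown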
MT1-MMP act inh: blockers of MT1-MMP proenzyme processing, primary screen, HT1080 RFP-PRO-GFP cells, GFP/RFP fluorescence. Matrix metalloproteinase-14 (Homo sapiens), P50281. AID 651647, 2012. 360,000 compounds, 0.061% hits. GFP/RFP ratio fluorescence, overnight; percent of plate control window, DMSO zero. GFP/RFP ratio change, % at 20 µM;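 active means GFP/RFP ratio change of at least 30% with cell ATP level not reduced by more than half and red fluorescence within 50% of control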; further: strong numbers were not always called active
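Test system: HT1080 RFP-PRO-GFP cells; Benchmarks: DMSO and RFP-L50D-GFP cell wells; Timing: cells overnight before dosing, compound overnight, 37 °C, 5% CO2; Compound: one 20 µM compound dose with 1% DMSO; Read-out: GFP/RFP fluorescence ratio.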
CSC inhib: cancer stem cell viability inhibitors, primary screen, luminescence; cancer stem cell-like cells viability; inhibition, % at 7.5 µM; 300,000 compounds, 1.1% hits;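 active means mean at 75% or more and at least half the replicates too; tested in HMLE shEcad cells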;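 further: 0% = median of negative and 100% = median of positive control wells; the first replicate is given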
Rce1 inhib: yeast Rce1p protease inhibitors, primary screen, biochemical, fluorescence, cell-free homogeneous; AID 2563, 2010; calls only; yeast membranes, quenched prenylated peptide cleavage fluorescence; CAAX prenyl protease 2 (Saccharomyces cerevisiae (strain ATCC 204508 / S288c)), Q03530; 290,000 compounds, 0.27% hits;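 active means fall in fluorescence gain of 50% or more versus controls, with final raw signal at or below 3038400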;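 further: plate controls were neutral control wells for no effect and wells lacking membranes for full effect; tested at 10 µM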
MT1-MMP act inh RFP: second read-out of MT1-MMP act inh, no call of its own (marks repeat the call); RFP signal change, %; measured here: RFP expression control read;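 0 = vehicle wells; hits needed this value within 50% of zero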
* hit, by the source's call; i = inactive; · = not tested or not shown. This is a subset (hit frequency here may not be typical).

SMILES	PABP polyA inh	eIF4H inh	UUG fidelity	Env fusion inh	MT1-MMP act inh	MT1-MMP act inh RFP	CSC inhib	Rce1 inhib
COc1ccc(C(=O)N2CC3(C)CC2CC(C)(C)C3)cc1 (stereo not given)	1	-1	·	-11	-1	0	3	i
CCOc1ccc(C(=O)NNC(=O)CCNC(=O)c2ccc(Br)cc2)cc1OC	·	·	-20	-14	-2	1	17	·
O=C(CCC1CCCCC1)NCCN1CCOCC1	-4	-3	3	5	-1	-3	-5	i
Cc1ccc(NC(=O)CSc2nnc(NC(=O)CN3CCOCC3)s2)cc1	1	-3	-25	-9	5	3	-6	i
CCOC(=O)c1cc2cc3ccccc3cc2[nH]1	-1	17	-11	-84	-1	-4	1	i
Cn1c(NCc2ccccc2O)nc2ccccc21	-2	1	-18	-142	2	0	-8	i
O=C1CC(O)(C(F)(F)F)Oc2c1ccc1ccccc21 (stereo not given)	-3	8	-12	·	1	4	17	i
CCOc1ccc(Br)cc1S(=O)(=O)Nc1cccc(S(=O)(=O)NC2=NCCC2)c1	19	-2	·	3	-2	3	-6	i
COc1ccc(N2C(=O)C(CC(=O)Nc3ccccc3)N(Cc3ccc4c(c3)OCO4)C2=O)cc1 (stereo not given)	7	12	6	·	5	7	-4	i
CCOC(=O)/C(C#N)=C\c1ccc(CC)s1	4	-6	-18	8	2	2	4	i
O=C(CCC1CCCC1)N=C1SC2CS(=O)(=O)CC2N1Cc1ccccc1 (stereo not given)	-2	-1	-15	13	1	0	3	i
Cc1ccnc(NC(c2ccncc2)c2c(C)[nH]c3ccccc23)c1 (stereo not given)	1	11	·	9	1	5	-30	i
COC(=O)c1c(NC(=O)c2ccoc2C)sc(C)c1C	1	-1	-3	-8	-4	1	-6	i
CCOc1ncccc1C(=O)Nc1ccc(-c2cn3ccsc3n2)cc1	-13	-4	-8	5	17	7	-3	·
O=C(CCCOc1ccccc1)n1nnc2ccccc21	4	-4	-9	·	8	0	·	·
C#CC(CC)(CC)NC(=O)c1c(C)noc1C	-6	0	-4	0	1	1	·	i
COC(=O)c1sc(NC(=O)COC(=O)C2CCC2)c(C(=O)OC)c1C	·	·	10	-43	2	2	·	·
CCN1CCN(C(=O)CS(=O)(=O)Cc2nc(-c3ccc(C)cc3)oc2C)CC1	-6	0	-4	-2	-4	-3	·	i
CCCCn1nnnc1SCC(=O)Nc1ccc(N(C)C)cc1	6	-5	-16	-22	-1	2	18	i
COc1ccc(-n2cc(-c3ccccc3)c3c(N4CCN(CCO)CC4)ncnc32)cc1	-9	-13	8	·	3	-19	-4	i
CCOc1ccccc1OCC(=O)NC1CCCCC1	-5	-14	-10	18	-7	-4	5	i
COc1cc(CCC(=O)OCn2nnc3ccccc3c2=O)cc(OC)c1OC	-2	-6	-8	-113	5	-7	3	i
Cc1ccc(S(=O)(=O)NC(=O)Nc2cc(C)no2)cc1	-1	2	3	-8	1	2	-10	i
COc1ccc(C)cc1N(CC(=O)N1CCCC1)S(C)(=O)=O	-1	11	6	19	-2	-2	5	i
COc1cc(C2C(Oc3ccccc3C)C(=O)N2Cc2ccc(F)cc2)cc(OC)c1OC (stereo not given)	-3	10	-1	9	3	4	1	i
The list continues.
SMILES	PABP polyA inh	eIF4H inh	UUG fidelity	Env fusion inh	MT1-MMP act inh	MT1-MMP act inh RFP	CSC inhib	Rce1 inhib
C=CCSc1n[nH]c(-c2ccc(OCCC)cc2)n1	0	-6	-7	·	7	1	29	i
CCOc1nc(-c2ccccc2)ccc1-c1noc(-c2ccco2)n1	-8	-10	·	-21	0	3	-4	i
CSCCC(NC(=O)c1ccccc1)C(=O)N(C)CC(=O)Nc1ccc(N2CCOCC2)cc1 (stereo not given)	9	-3	10	-10	3	3	-16	i
Oc1c(Cl)cc(Cl)cc1CNc1ccccn1	15	-2	1	7	2	2	·	i
Cc1cc(C)nc(N2CCC(C(=O)NC3CC3)CC2)n1	-1	-6	-7	20	-2	1	-2	i
NC(=O)COC(=O)c1ccc(NS(=O)(=O)c2ccc3c(c2)OCCO3)cc1	1	9	-3	-4	2	1	-4	i
O=C(N/N=C/c1c(F)c(F)c(F)c(F)c1F)c1cccc(S(=O)(=O)N2CCOCC2)c1	1	-13	·	7	-1	-3	-7	i
CC(C)CN(C(=O)CN1CCc2ccccc21)c1c(N)n(CC(C)C)c(=O)[nH]c1=O	-1	4	-12	-5	-11	12	·	i
O=C(c1ccccc1)N1CCN(C(=O)N2CCOCC2)CC1	5	0	-14	-76	1	2	-21	·
CCOc1ccc(S(=O)(=O)N2CCCC(C(=O)N3CCOCC3)C2)cc1Cl (stereo not given)	6	-2	-1	-7	1	-8	3	i
O=C(N/N=C/c1cccc([N+](=O)[O-])c1)c1cc2c(ccc3ccccc32)o1	-25	-23	-12	·	5	6	2	i
C=CCOc1ccc(/C=N/NC(=O)CN(c2cc(Cl)ccc2OC)S(=O)(=O)c2ccc(C)c([N+](=O)[O-])c2)cc1	39	-3	·	15	6	0	-4	i
CCNC(=O)Cn1c(=O)c2c(ncn2Cc2ccccc2)n(Cc2ccccc2)c1=O	-12	-4	-17	·	3	1	·	i
CC1CC2(C)C(=CC1=O)CCC1C2C(O)CC2(C)C1CCC2(O)C(=O)CO (stereo not given)	·	·	2	-128	2	0	·	·
Clc1cccc(CN2CCCCCC2)c1Cl	24	0	-18	11	0	2	-10	i
COc1ccc(Nc2n[nH]c(N)c2C(N)=O)cc1	-1	-2	·	-16	1	-1	-12	i
O=C(NCC1CCCO1)C(c1cccs1)N(Cc1ccccc1Cl)C(=O)c1ccc(-c2ccccc2)[nH]1 (stereo not given)	-15	-6	-14	-14	-45	-33	·	i
COc1ccc(C(=O)N(C)CC(=O)Nc2cccc(F)c2)cc1S(=O)(=O)NC1CCCC1	·	·	·	13	5	1	·	i
Cc1nc2nc(SCC(=O)c3ccccc3)[nH]c2cc1Br	-13	8	-13	-45	-1	-3	-11	i
COc1cc(C(=O)NC(C)c2cc(C)ccc2C)ccc1OCC(=O)N1CCOCC1 (stereo not given)	·	·	11	-3	1	2	·	·
COc1ccccc1N(CC(=O)Nc1ccccc1C(=O)NCC(C)C)S(C)(=O)=O	3	-3	-1	11	3	-2	1	i
CCCn1nnc(NC(=O)c2ccccc2Cl)n1	-2	5	-13	·	-2	1	-10	i
COc1ccc(C(=O)n2nc(C#N)c(C#N)c2N)cc1	-16	-5	-12	-10	6	3	-8	i
Nc1ncc(Br)cc1S(=O)(=O)Nc1cc(C(F)(F)F)cc(C(F)(F)F)c1	1	8	29	6	5	-32	-6	i
CCNc1nc(SC(C)C(=O)OC)nc(N(C)C)n1 (stereo not given)	-1	15	0	16	4	3	0	i

As entered above.
Entry for Cc1nc2nc(SCC(=O)c3ccccc3)[nH]c2cc1Br in CSC inhib: -11
Entry for Clc1cccc(CN2CCCCCC2)c1Cl in UUG fidelity: -18

(next part)
SMILES	PABP polyA inh	eIF4H inh	UUG fidelity	Env fusion inh	MT1-MMP act inh	MT1-MMP act inh RFP	CSC inhib	Rce1 inhib
CCC(=O)Nc1ccc(NC(=O)CSc2nnnn2C(C)C)cc1	5	4	-19	·	-4	-2	-10	i
O=C1CCC(C(=O)N2CCCCCC2)CN1Cc1cccc(C(F)(F)F)c1 (stereo not given)	-1	4	2	3	-2	-4	-12	i
Cc1ccc(C2NC(c3ccc(C)cc3)C([N+](=O)[O-])C(C)(C)C2[N+](=O)[O-])cc1 (stereo not given)	4	-1	·	11	1	1	10	i
Cc1ccc2nc(-c3ccc(Br)cc3)cn2c1	-7	-9	-78	34	8	-1	-3	i
COCCNC(=O)CN(C(=O)Cn1nnc2ccccc21)c1ccc(C)cc1	1	1	·	-12	0	-1	-7	i
S=C(Nc1ccccc1)N1CCN(Cc2ccccc2)CC1	-3	-8	-19	-1	2	2	-10	i
O=C(COC(=O)c1ccc(O)cc1)c1ccc2c(c1)OCCO2	·	·	-54	-111	-2	2	·	·
CC(C)[C@@H](C(=O)O)N(Cc1cccc(CN([C@H](C(=O)O)C(C)C)S(C)(=O)=O)c1)S(C)(=O)=O	5	9	4	-3	-1	6	-9	i
Cn1c(=O)c2c(-c3ccccc3)n(Cc3ccccn3)cc2n(C)c1=O	13	5	-16	·	2	2	6	i
O=C(Nc1cc(S(=O)(=O)N2CCCCCC2)ccc1OCC(F)(F)F)c1ccc(=O)[nH]c1	·	·	8	-1	1	1	5	·
O=C(c1ccccc1)c1c[nH]c(C(=O)NNc2cccc(Cl)n2)c1	-14	-6	·	-37	1	-2	-15	i
O=C(CSc1nnc(-c2ccc(Br)cc2)o1)Nc1cccc(C(=O)O)c1	-1	10	-17	88*	0	3	-9	i
Cc1c(C(=O)Nc2cccc(S(=O)(=O)N3CCOCC3)c2)oc2ccccc12	·	·	-12	61*	3	-4	-11	·
N=C1SCC(=O)N1/N=C/c1ccccc1	3	5	-14	37	-9	1	-11	i
O=C(NCc1ccc(Cl)cc1)C1CCN(S(=O)(=O)c2ccccc2)CC1	-2	-1	·	2	3	-3	-12	i
O=C(CSc1nc(O)cc(=O)[nH]1)N1CCCc2ccccc21	-1	-3	-3	-10	4	11	-13	i
CCc1nc2ccc(C(=O)Nc3ccc(NC(C)=O)cc3)cn2c1N(CCC(C)C)CCN(C)C	·	·	-23	-2	-1	1	·	·
Cc1ccc(S(=O)(=O)CCC(O)c2ccc(Cl)cc2)cc1 (stereo not given)	-2	0	-9	0	2	4	-2	i
NC(=O)NOCc1c(Cl)cccc1Cl	4	1	·	-17	-2	1	-2	i
Cc1cc(C)n2nc(SCc3nnc(-c4ccc(F)cc4)o3)nc2n1	-5	2	·	·	·	·	-9	i
COCc1cc(C)n(CC(=O)N2CCCC2)c(=O)c1C#N	5	3	·	1	-1	3	0	i
Cc1ccc(C(=O)Nc2nc(C(N)C(C)C)cs2)cc1 (stereo not given)	·	·	-11	6	-8	-10	·	·
Cc1nc2cc(NC(=O)NCc3ccco3)ccc2n1C	-6	-1	0	-47	10	1	1	i
COc1cc(N)c(Cl)cc1C(=O)OCC(=O)N(C)C1CCCCC1	·	·	-13	·	0	1	-11	·
COc1ccc(Cl)cc1N(CC(=O)Nc1cccc(SC)c1)S(C)(=O)=O	0	-15	-6	·	3	2	-6	i
Cc1cc(C)c(C)c(S(=O)(=O)NCc2ccncc2)c1C	10	3	·	57*	-4	-27	-45	i
CCOC(=O)C1CCN(C(=O)COC(=O)c2nc3nc(C)cc(C)n3n2)CC1	·	·	-11	0	0	2	-12	i
CCc1ccccc1NC(=O)COC(=O)C1C2CC3OC(=O)C1C3C2 (stereo not given)	-7	-5	-16	3	3	7	-3	i
CCc1nn(CC(=O)N2CCN(CC)CC2)c(=O)c2cc3sccc3n12	0	-4	-8	-11	13	5	2	i
Cc1ccc(/C=C2/C(=N)N3N=C(CC(=O)N4CCCC4)SC3=NC2=O)cc1	3	13	-8	2	-2	3	-12	i

Whole records as entered above:
O=C(CSc1nnc(-c2ccc(Br)cc2)o1)Nc1cccc(C(=O)O)c1 in the list: PABP polyA inh: -1; eIF4H inh: 10; UUG fidelity: -17; Env fusion inh: 88*; MT1-MMP act inh: 0; MT1-MMP act inh RFP: 3; CSC inhib: -9; Rce1 inhib: i
CCOc1ncccc1C(=O)Nc1ccc(-c2cn3ccsc3n2)cc1 in the list: PABP polyA inh: -13; eIF4H inh: -4; UUG fidelity: -8; Env fusion inh: 5; MT1-MMP act inh: 17; MT1-MMP act inh RFP: 7; CSC inhib: -3; Rce1 inhib: ·

Compound activity: PubChem, several laboratories
